Compound activity: PubChem BioAssay, several laboratories
YopH inh: blocks Yersinia enterocolitica YopH tyrosine phosphatase. fluorescence Ex485/Em525. inhibition, %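 (about 10 µM by stock and volumes)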. hit rate 0.16% among 140,000. AID 898;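 active means inhibition of 50% or more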;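 further: controls were vehicle for no effect and minimum signal wells for full effect; inactives centre near -20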
Arbovirus inh: blocks arbovirus infection; arbovirus infection cell-based antiviral screen; inhibition, % at 10 µM; hit rate 0.37% among 200,000;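 active means inhibition from about 30%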;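 further: bluetongue infection of BSR cells; cell survival read as ATP light after 72 h; 0% = infected wells without compound and 100% = uninfected wells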
RecA intein inh: blocks M. tuberculosis RecA intein splicing. P9WHJ3. cell-free RecA intein splicing, fluorescence. inhibition, %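 (about 9 µM by stock and volumes)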. hit rate 0.75% among 290,000. AID 2221; in the data active means inhibition above about 30%; inconclusive means no clear call, values can overlap the other calls;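 further: 0% = vehicle wells and 100% = reference inhibitor control wells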
Target sequence (P9WHJ3 whole entry, looked up): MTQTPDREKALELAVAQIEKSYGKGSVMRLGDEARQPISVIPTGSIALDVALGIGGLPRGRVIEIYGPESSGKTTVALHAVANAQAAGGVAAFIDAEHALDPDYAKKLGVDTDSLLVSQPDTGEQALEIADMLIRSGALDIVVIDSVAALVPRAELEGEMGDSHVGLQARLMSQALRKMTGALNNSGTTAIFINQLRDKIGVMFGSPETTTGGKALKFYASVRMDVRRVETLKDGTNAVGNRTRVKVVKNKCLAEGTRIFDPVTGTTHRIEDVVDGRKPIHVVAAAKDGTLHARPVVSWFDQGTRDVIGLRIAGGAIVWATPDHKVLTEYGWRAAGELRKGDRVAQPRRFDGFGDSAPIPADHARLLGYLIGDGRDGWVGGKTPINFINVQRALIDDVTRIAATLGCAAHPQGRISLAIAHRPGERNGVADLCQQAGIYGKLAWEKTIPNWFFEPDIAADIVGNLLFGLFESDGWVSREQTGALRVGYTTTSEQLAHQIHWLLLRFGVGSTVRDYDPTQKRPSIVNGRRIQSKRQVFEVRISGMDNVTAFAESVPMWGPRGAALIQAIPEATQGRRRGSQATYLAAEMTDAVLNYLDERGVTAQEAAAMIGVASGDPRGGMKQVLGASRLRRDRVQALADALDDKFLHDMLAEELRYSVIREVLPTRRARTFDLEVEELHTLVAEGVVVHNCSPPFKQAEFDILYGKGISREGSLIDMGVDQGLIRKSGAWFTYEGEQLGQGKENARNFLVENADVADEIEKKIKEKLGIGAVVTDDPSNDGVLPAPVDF
Mtb betalactam: beta-lactam sensitization of Mtb H37Rv; inhibition, % at 25 µM; hit rate 0.27% among 330,000; M. tuberculosis H37Rv growth with meropenem, percent inhibition; hits of this screen are not shown here;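 active means about 74% or more and at least 40 points above the plate without the antibiotic, then above 30% in a dose series; inconclusive means first-round hits that could not be retested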;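 further: growth measured after seven days incubation then overnight dye step; 0% = bacteria only wells and 100% = bacteria with antibiotic; twin plates without the antibiotic show which effects depend on it; some results filed as inactive read as strong as hits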
Mtb growth: M. tuberculosis H37Rv growth inhibitors, H37Rv strain (AID 1626). M. tuberculosis H37Rv growth inhibition; higher % means a stronger effect. inhibition, % at 10 µM, or IC50 in µM where a hit was titrated. hit rate 0.95% among 220,000;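 active means confirmed in a dose series; inconclusive means inhibition above 80% but not taken into the dose series; inactive means below 80% or under 30% at every dose of the series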;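 further: bacteria incubated seven days before Alamar blue readout; 0% = bacteria only wells and 100% = bacteria with antibiotic wells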
Arbovirus inh repeat: recorded beside Arbovirus inh, whose call it bears; inhibition, %; measured here: 10K subset replicate screen; many hits read low in the repeat;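 first of two repeat runs on a subset; 0% = infected and 100% = uninfected wells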
Starred values were filed as active, the others as inactive; ? = inconclusive; . = no result given. Some of the compounds tested, so the mix of outcomes need not match the whole.

SMILES	YopH inh	Arbovirus inh	RecA intein inh	Mtb betalactam	Mtb growth	others
CCCn1c(SCC(N)=O)nnc1C(C)C	-47.7	4.0	-1.5	-3.8	-4.2%
Cc1cc(Nc2cccc(Cl)c2)c2ccccc2n1	.	.	10.0	6.3	.
CN(CCNC(=O)C1CCC(=O)N(Cc2cccc(F)c2)C1)CCc1ccccc1 (centres undefined)	.	.	-1.7	0.1	.
CN(CC(=O)Nc1ccccc1Cl)C(=O)C1CCN(C(=O)c2ccc(Cl)cc2)CC1	.	.	-1.4	-3.7	.
CN1CCN(c2ccccc2NC(=O)COc2ccccc2)CC1	-19.1	15.3	2.4	0.4	-3.1%
CC(NC(=O)NC(=O)c1cccc([N+](=O)[O-])c1)C1CC1 (centres undefined)	.	.	-1.7	-3.5	.
CC(C)Oc1cccc(C(=O)C2CCCN(C(=O)c3noc4c3CCCC4)C2)c1 (centres undefined)	.	18.9	3.0	-16.4	11.4%
O=C(N/N=C/C=C/c1ccccc1)c1ccccc1Br	0.7	-6.3	0.7	4.0	-2.2%
CC(=O)N1CCOc2ccc(S(=O)(=O)NCC3CCC(C(=O)Nc4ncccc4C)CC3)cc21 (centres undefined)	.	.	2.3	1.2	.
Cc1nc2cc(NC(=O)NCc3ccco3)ccc2o1	-28.5	-0.8	0.4	4.8	7.6%
COc1ccc(C2C(C(=O)N3CCC4(CC3)OCCO4)CC(=O)N2c2ccc(OC)cc2)cc1 (centres undefined)	-35.1	4.9	.	-6.7	-11.1%	Arbovirus inh repeat=0.5
Cc1nc(-c2ccc(F)cc2)c(CC(=O)Nc2ccc(C)c(S(=O)(=O)N3CCOCC3)c2)s1	.	.	5.2	-7.6	.
CCC(C(=O)OCC(=O)Nc1cccc(OC)c1)c1ccccc1 (centres undefined)	.	14.6	-0.1	-0.6	7.1%
CCc1c(O)nc(SCC(=O)N2CCc3cc(OC)c(OC)cc3[C@@H]2C)[nH]c1=O	.	.	-0.1	3.0	.
COC(C[C@@H](O)[C@@H](C)[C@@H](O)COCc1ccccc1)OC	.	.	1.2	.	-11.8%
COc1cc(/C=C2/NC(=O)N(Cc3ccccc3F)C2=O)cc(OC)c1OC	.	11.0	0.9	-0.9	-4.1%
Cc1nnc(SCC(=O)N/N=C/c2cn(-c3ccccc3)nc2-c2ccc(F)cc2)n1-c1ccccc1	-4.2	-5.3	0.1	61.1	11.4%
COCCn1c(=S)[nH]c2cc(C(=O)N3CCCC(C)C3)ccc2c1=O (centres undefined)	.	.	-2.2	-1.2	.
Cc1cccc(C(=O)Nc2nnc(-c3cccnc3)o2)c1	.	2.8	-1.7	94.2	?
Cc1ccc(-c2nc(CS(=O)CC(=O)NC3CCCCC3)c(C)o2)cc1 (centres undefined)	.	.	1.4	-6.0	.
CCc1cc2c(=O)nc3n(c2s1)Cc1ccccc1/C3=C(/O)c1ccccc1Cl	-30.6	3.0	-16.4	5.7	.
CCc1cc(C(=O)Cc2cnn(-c3ccccc3)c2)c(O)cc1O	-25.4	-12.7	0.7	-13.2	1.2%	Arbovirus inh repeat=1.8
O=C(Cc1ccc(S(=O)(=O)N2CCOCC2)s1)N1CCN(c2cccc(C(F)(F)F)c2)CC1	.	.	-0.3	3.2	.
Cc1cccc(NC(=O)c2ccc3c(c2)C(=O)N(c2ccccn2)C3=O)c1C	.	.	1.4	3.6	.
O=C(CC(NC(=O)c1ccccc1Cl)c1ccccc1)NC1=NCCS1 (centres undefined)	.	14.5	-2.8	3.2	4.9%

Next part; it opens with the three that closed the last part.
SMILES	YopH inh	Arbovirus inh	RecA intein inh	Mtb betalactam	Mtb growth	others
O=C(Cc1ccc(S(=O)(=O)N2CCOCC2)s1)N1CCN(c2cccc(C(F)(F)F)c2)CC1	.	.	-0.3	3.2	.
Cc1cccc(NC(=O)c2ccc3c(c2)C(=O)N(c2ccccn2)C3=O)c1C	.	.	1.4	3.6	.
O=C(CC(NC(=O)c1ccccc1Cl)c1ccccc1)NC1=NCCS1 (centres undefined)	.	14.5	-2.8	3.2	4.9%
COc1ccc(C(=O)Nc2cccc(-c3nc4ncccc4o3)c2C)cc1	-19.1	-1.6	0.2	1.2	-19.2%
O=C(CCc1ccc(Oc2cc([N+](=O)[O-])cc([N+](=O)[O-])c2)cc1)N1CCCCC1	-36.1	-2.5	8.1	99.4	3.8%
CC(=O)OC(C(=O)NCc1ccc(F)cc1)c1ccccn1 (centres undefined)	-31.3	3.6	-4.8	-5.0	6.2%
CC1(C)C(c2cccs2)=NC(c2ccccc2)N1O (centres undefined)	-1.6	-5.6	-3.1	8.8	-1.3%
CCn1nc(C)c(CNC(=O)c2cc(COc3ccccc3SC)on2)c1C	.	.	2.1	-3.5	.
CCOc1cc(/C=C2/COc3ccccc3C2=O)ccc1OCC(=O)N(C)C	.	-22.2	.	.	53.6%
CCOC(C[n+]1c(-c2ccccc2)cc(C)cc1-c1ccccc1)OCC	.	.	-1.5	-4.8	.
COc1cc(C)nn1-c1ccc(Cl)cc1	.	-7.8	1.3	-2.4	3.0%
N#CC1=C2SCN(Cc3ccccc3)CN2C(=O)CC1c1cccs1 (centres undefined)	-58.4	2.0	12.3	-2.3	-3.0%	Arbovirus inh repeat=-4.1
Cc1cc(C)cc(-n2ncc3c2CCCC3NC(=O)CCN2Cc3ccccc3C2=O)c1 (centres undefined)	.	.	1.7	-0.8	.
CC(=O)c1ccc(NC(=O)C2(c3ccccc3)CCOCC2)cc1	-5.6	13.3	-0.5	-10.0	-11.3%
O=C(Cn1cnc2cc([N+](=O)[O-])ccc2c1=O)NC(c1ccccc1)c1ccccc1	-18.3	-3.1	-1.9	7.1	-2.9%
COc1ccc(C(=O)C2CCN(C(=O)c3ccco3)CC2)cc1	-31.2	2.1	2.5	4.7	0.1%
CCCC(=O)C1=C(O)C(C(=O)OC)C(C)(C)CC1=NCCc1ccccc1 (centres undefined)	.	.	2.2	2.9	.
COc1ccc2[nH]c3c(c2c1)CCN1C(=O)N([C@@H](C)C(=O)NCc2ccccc2OC)C(=O)[C@]31C	.	.	3.5	-0.3	.
CN(C)c1ccc(/C=C/C(=O)c2ccccc2)cc1[N+](=O)[O-]	-23.9	3.7	3.6	67.7	50.7%
COc1ccccc1S(=O)(=O)Cc1ccc(C(=O)NCc2cccnc2)o1	46.3	-2.8	1.8	-2.7	-6.7%	Arbovirus inh repeat=0.0
CC(=O)c1cccc(NC(=O)C2CCN(S(=O)(=O)c3c(C)n[nH]c3C)CC2)c1	-26.9	1.6	0.1	2.3	-6.5%
CC(OC(=O)CNC(=O)c1ccc(Cl)c(Cl)c1)C(=O)N1CCOCC1 (centres undefined)	.	.	-4.3	-1.5	.
Cc1cc(NC(=O)CSc2nnc(C3CC3)n2C)no1	-41.2	6.4	1.8	8.1	-0.1%
CC1CCCCN1C(=O)NC1CC(=O)N(c2ccc3c(c2)OCCO3)C1 (centres undefined)	.	.	-2.0	4.3	.
CC1=C(C(=O)OC(C)C)C(/C=C/c2ccccc2)NC(=O)N1 (centres undefined)	.	.	-7.3	-7.8	.
CS(=O)(=O)N1CCC(C(=O)NCC2CCCO2)CC1 (centres undefined)	-21.7	4.2	2.0	1.6	-4.6%
CCCCCc1nnc(NC(=O)Cc2ccc([N+](=O)[O-])cc2)s1	.	4.3	-13.5	-4.0	3.0%
O=C(NCCCN1CCOCC1)c1coc2ccccc2c1=O	-56.8	9.8	-0.7	-2.9	4.8%
The list goes on:
SMILES	YopH inh	Arbovirus inh	RecA intein inh	Mtb betalactam	Mtb growth	others
COc1ccc(C(CC(=O)N2CCOCC2)C(C)C)cc1 (centres undefined)	-62.6	5.6	-2.1	3.0	-9.0%
CC(=NCC1CCCO1)C1=C(O)CC(C)(C)CC1=O (centres undefined)	-23.0	-4.5	-1.1	-1.1	-1.1%
Cc1ccc(NC(=O)c2cc(S(=O)(=O)N3CCOCC3)cn2C)cc1F	.	.	-0.7	-4.2	.
Cc1ccc(N=Cc2sc(O)c3ccccc23)c(C)c1	-10.0	-13.8	.	3.1	3.3%
CCCN(CCC)S(=O)(=O)c1ccc(C(=O)N2CCCc3ccccc32)cc1	-2.4	-5.6	9.5	-15.0	-7.0%
Cc1ccc(C2C(C(=O)c3cc4ccccc4o3)=C(O)C(=O)N2CCN2CCOCC2)o1 (centres undefined)	-39.8	-2.4	-9.5	-4.6	-3.4%
COc1ccc(N2C(=O)c3cccc4cc(Br)cc(c34)C2=O)cc1	.	3.1	0.4	-3.1	1.4%
COc1ccc(NC(=O)c2ccc(Br)c(S(=O)(=O)N3CCOCC3)c2)cc1	.	.	-1.0	-3.0	.
C=CCn1c(SCC(=O)N2CCCCC2)nc(O)cc1=O	-15.9	6.2	6.1	-9.8	-4.8%
O=C(c1ccc(F)cc1)N1CCN(c2ccc([N+](=O)[O-])c(N3CCOCC3)c2)CC1	-25.1	7.4	-0.8	-4.6	-3.4%
O=C(Cc1cccs1)NCCc1ccc(F)cc1	.	.	-2.9	-2.5	.
Cc1ccc(NC(=O)Cc2ccc(F)cc2)cc1	3.9	4.5	0.3	3.7	0.0%
CCOc1ccc(C(=O)Nc2cccc(C)n2)cc1	-21.5	-1.4	2.0	-2.5	3.3%
CCNc1nc(NC(C)C)nc(N(C#N)C(C)C(=O)N(C)C)n1 (centres undefined)	-3.4	9.7	-2.5	-3.9	-4.2%
Cc1ccc(-c2cc(C(=O)NCCc3ccccn3)c3ccccc3n2)c(C)c1	-29.7	1.1	3.0	2.0	.
Cc1c(NC(=O)CSc2nnc(N)s2)c(=O)n(-c2ccccc2)n1C	-25.1	0.6	0.0	-7.8	.
COCCCN=C1NN=C(c2cc(C)n(Cc3ccccc3Cl)c2C)CS1	.	-4.3	11.7	96.8	11.3µM*
O=C(O)CP(=O)(O)c1ccc(Cl)cc1	-42.0	9.1	-3.6	3.5	-5.0%
O=C(Nc1ccc(Cl)cc1)OC(CN1CCCCC1)C(F)(F)F (centres undefined)	-19.3	-4.7	2.6	-5.9	9.7%
CCn1ccnc1CN(C)C(=O)c1cc(COc2ccc(OC)c3ccccc23)on1	.	.	9.0	92.8	.
CC1CCC(NC(=O)C2CCN(S(=O)(=O)c3cccc4nonc34)CC2)CC1 (centres undefined)	.	.	-1.3	-9.8	.
O=C(CSCc1ccc(Cl)cc1)N/N=C/c1ccc(Cl)cc1Cl	-31.5	-0.8	-0.9	2.3	-6.0%
COc1ccc(C(CNC(=O)c2ccc(NS(=O)(=O)c3ccc(F)c(C)c3)cc2)N2CCOCC2)cc1 (centres undefined)	.	.	3.3	-7.1	.
CC(O)Cc1cn(CC(=O)N2CCN(C(=O)OC(C)(C)C)CC2)nn1 (centres undefined)	.	6.7	-2.7	-5.9	1.0%

Among those listed so far, two have a CF3 group:
SMILES	YopH inh	Arbovirus inh	RecA intein inh	Mtb betalactam	Mtb growth	others
O=C(Cc1ccc(S(=O)(=O)N2CCOCC2)s1)N1CCN(c2cccc(C(F)(F)F)c2)CC1	.	.	-0.3	3.2	.
O=C(Nc1ccc(Cl)cc1)OC(CN1CCCCC1)C(F)(F)F (centres undefined)	-19.3	-4.7	2.6	-5.9	9.7%

Sorted by length of the SMILES (ascending): part of the list above.
SMILES	YopH inh	Arbovirus inh	RecA intein inh	Mtb betalactam	Mtb growth	others
C=CCn1c(SCC(=O)N2CCCCC2)nc(O)cc1=O	-15.9	6.2	6.1	-9.8	-4.8%
CCC(C(=O)OCC(=O)Nc1cccc(OC)c1)c1ccccc1 (centres undefined)	.	14.6	-0.1	-0.6	7.1%
COc1cc(/C=C2/NC(=O)N(Cc3ccccc3F)C2=O)cc(OC)c1OC	.	11.0	0.9	-0.9	-4.1%
